hNpr1 antagonist: antagonists of human natriuretic peptide receptor Npr1 | P16066 | 1.6% of 76,000 active | AID 1347048 | Potency, µM (highest dose often 46.3 µM), for the others: top-dose activity change, negative = inhibition, most hits filed as inhibitors | HEK293 hNpr1 GloSensor cGMP, ANP-stimulated luminescence; active = well fitted inhibition curve with a large enough effect; inconclusive = small, poorly fitted or top-dose-only effect; inactive = no such curve, though single readings can be large or run the other way;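 note: nearly all actives have a fitted effect of over 60% in size; nearly all hits also lower the signal before the agonist is added; a reference antagonist and vehicle were the controls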
Target sequence (P16066 whole entry, looked up): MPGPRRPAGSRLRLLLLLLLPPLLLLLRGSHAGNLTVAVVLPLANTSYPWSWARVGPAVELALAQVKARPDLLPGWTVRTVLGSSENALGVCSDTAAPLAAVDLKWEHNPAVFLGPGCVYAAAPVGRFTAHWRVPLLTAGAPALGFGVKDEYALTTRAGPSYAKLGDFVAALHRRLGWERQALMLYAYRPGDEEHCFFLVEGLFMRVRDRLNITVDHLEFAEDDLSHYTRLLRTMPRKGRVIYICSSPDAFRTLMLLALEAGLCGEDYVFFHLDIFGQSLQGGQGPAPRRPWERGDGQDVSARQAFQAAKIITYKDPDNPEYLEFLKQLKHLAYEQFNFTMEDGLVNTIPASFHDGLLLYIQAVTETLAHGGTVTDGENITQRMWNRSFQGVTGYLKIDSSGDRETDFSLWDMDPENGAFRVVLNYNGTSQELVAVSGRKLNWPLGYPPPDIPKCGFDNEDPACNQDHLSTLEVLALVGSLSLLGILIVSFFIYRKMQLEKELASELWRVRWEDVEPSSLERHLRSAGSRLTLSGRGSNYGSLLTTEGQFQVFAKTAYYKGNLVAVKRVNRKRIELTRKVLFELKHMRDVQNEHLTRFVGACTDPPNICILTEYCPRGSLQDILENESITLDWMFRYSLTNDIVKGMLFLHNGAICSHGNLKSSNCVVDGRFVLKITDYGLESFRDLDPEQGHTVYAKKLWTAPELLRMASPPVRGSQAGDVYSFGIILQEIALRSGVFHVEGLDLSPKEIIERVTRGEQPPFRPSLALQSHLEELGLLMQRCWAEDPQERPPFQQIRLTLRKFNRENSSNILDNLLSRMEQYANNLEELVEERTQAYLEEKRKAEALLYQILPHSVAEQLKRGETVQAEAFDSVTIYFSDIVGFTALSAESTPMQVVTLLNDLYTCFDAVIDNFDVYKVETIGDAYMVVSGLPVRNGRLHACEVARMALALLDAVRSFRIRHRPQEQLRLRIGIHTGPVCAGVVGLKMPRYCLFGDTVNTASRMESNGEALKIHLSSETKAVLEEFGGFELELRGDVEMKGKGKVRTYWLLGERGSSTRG
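HEK293 cells stably expressing human Npr1 and cGMP GloSensor pGS-40F, loaded 2 h with 2% GloSensor reagent, given compound 30 min at room temperature. Luminescence read before and 20 min after 0.1 nM hNppA.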
* = called active by the depositor; u = inconclusive; & = joins results of further samples; [ ] = remark or other dose. % is set by controls: 0 for no effect and ±100 for the full control effect; potency is the fitted concentration of half-maximal effect. Not all compounds are listed; the hit share may differ from the screen's.

hNpr1 antagonist | mol
1% | CCOC(=O)C1CCCCN1C(=O)c1cn(C(c2ccccc2)c2ccccc2)nn1 (centres undefined)
2% | COc1ccc(-c2ccnc3nc(C4CCCO4)nn23)c(F)c1 (centres undefined)
6% | Cc1cccc(-c2noc(CCC(=O)N3CCCC4(CCNCC4)CC3)n2)c1
0% | COCc1noc([C@@H]2CN(Cc3ccc(C)cn3)C[C@H]2COC)n1
14µM* | COc1cccc(CCC(=O)N2CCC(n3cc(-c4nc(-c5ccccc5)no4)nn3)C2)c1 (centres undefined)
-1% | COc1ccc(NC(=O)COc2ccc(NC(=O)C3CC3)cn2)cc1
2%[70.6 µM] | CN(C)CC(=O)N1CCC2(C1)CN(C)c1ccc(C(=O)NCc3ccccc3)cc12 (centres undefined)
4% | O=c1cc(CCn2cccn2)nc(-c2ccc(CN3CCC[C@@H](O)C3)cc2)[nH]1
-13% | CCC(C)NC(=O)Cn1nc2n(c1=O)CCCCC2 (centres undefined)
u | CN1C[C@@H](NC(=O)Nc2ccc(F)cc2F)C[C@H]1c1nc(-c2ccc(Cl)cc2)no1
5% | COCC(=O)N[C@@H]1CN(C(=O)Cc2cccc(OC)c2)CC[C@@H]1c1nc(C)no1
-3% | Cc1cccc(S(=O)(=O)N2CCc3c(C(=O)NCCN4CCCCC4)cccc32)c1
-12% | COCCN1CCCCCC(O)c2cc(C(=O)NCCc3ccccc3)ccc21 (centres undefined)
4%[70.6 µM] | CN1c2cccnc2CN(C(=O)Nc2cccc(C(F)(F)F)c2)CC[C@H]1CO
-6% | CC(=O)N(C1CC1)C1CCOC2(CCN(C(=O)CCc3nc4ccccc4[nH]3)CC2)C1 (centres undefined)
u | Cc1nc(N2CCC(NC(=O)c3ccccn3)CC2)cc(C(F)(F)F)n1
-2% | CCCCC(=O)N1CCC2(CC1)SCC(=O)N2c1ccc(OC)cc1
0% | CCC(C(=O)N1CCN(c2ccc(C#N)cn2)CC1)n1cccn1 (centres undefined)
5% | Cc1ccc(-c2ccc3nnc(CNC(=O)c4ccn[nH]4)n3n2)cc1
0%[70.6 µM] | CCCN1C(=O)[C@@H]2[C@@H](CCN2C(=O)CSCC(=O)O)N(Cc2cccs2)C1=O
-1% | CN1CCCN(C[C@@H]2CN(C(=O)CC3CCC3)C[C@@H]2CO)CC1
-4% | C[C@]1(CO)[C@H]2Cc3sc(NC(=O)c4cccs4)nc3[C@@H](CC(=O)NCc3cccnc3)[C@]2(C)CC[C@H]1O
-1% | CCOCC(=O)N1C[C@@H](CO)[C@H](c2ccccn2)C1
3%[70.6 µM] | COc1ccc(Cl)cc1-c1ccc2c(c1)C(=O)N1C[C@H](O)C[C@H]1C(=O)N2
-3% | O=C(CCc1nc2ccccc2[nH]1)N1CC2CC(C1)[C@H]1CCCC(=O)N1C2 (some centres undefined)
3% | COCCOc1ncccc1-c1noc([C@@H]2CCCN2Cc2ccc(S(C)(=O)=O)cc2)n1
-1% | COc1cccc(CN2CCC(N3CC(OCC4CC4)C34CCCCC4)CC2)n1 (centres undefined)
u | Cc1nc(C(=O)N2CCOc3c(O)cc(-c4cccc(Cl)c4)cc3C2)c(C)o1
26% | COc1cccc(N2CC(C(=O)NCCOc3ccccc3)NC2=O)c1 (centres undefined)
0% | COc1ccccc1C(=O)Nc1ccnn1C1CCN(c2cnccn2)CC1
3%[70.6 µM] | COc1ccc(-c2cc(CC3(NCc4ccco4)COC3)no2)cc1
-1% | Cn1ccnc1C(=O)N1C[C@@H](Oc2ccccc2)C[C@H]1C(=O)N1CCOCC1
2%[70.6 µM] | COc1ccc(-c2nc3ccncc3[nH]2)cc1
-6% | Cc1cc(C)c2[nH]c(C(=O)N(C)Cc3ccccc3-n3cccn3)c(C)c2c1
-1% | CNc1ncc(C(=O)N2CCCC3(CCC(=O)N(CCOC)C3)C2)cn1 (centres undefined)
3%[70.6 µM] | O=C(N[C@@H]1C[C@H](Cn2cc(C3CC3)nn2)[C@@H](O)[C@H]1O)c1cccnc1
-1% | c1ccc2nc(-n3nc(C4CCOC4)nc3C3CC3)cnc2c1 (centres undefined)
3% | O=C(C1CC1)N1CCn2c(nnc2[C@@H]2C[C@@H](O)CN2Cc2ccccc2)C1
5%[70.6 µM] | CCOCCN1C(=O)COC[C@@H]1[C@H](O)c1ccc(NC(=O)c2cccc(C#N)c2)cc1
1% | Cc1cc(CN(C)C(=O)c2cc(COc3ccc(F)cc3F)on2)on1
u | OCCN1CCN(c2ccc(-c3nc(-c4cccc(C(F)(F)F)c4)no3)cn2)CC1
0% | CNCC(=O)N1CCCC(c2nnc(CN3CCOCC3)n2C)C1 (centres undefined)
0%[70.6 µM] | COc1cccc(C(=O)N(C)Cc2ccc(F)cc2)c1
8% | Cc1nc(-c2c3n(c(=O)n(CC(=O)NCCCc4ccccc4)c2=O)CCCC3)no1
3%[70.6 µM] | COCc1cn(C[C@H]2C[C@@H](NC(=O)NC3CCCC3)[C@H](O)[C@@H]2O)nn1
6% | OC[C@H]1CCN(Cc2cn(-c3ccccc3)nc2-c2ccncc2)C[C@@H]1O
-16% | CC(NC(=O)c1cc2c(s1)CCN(C(=O)c1ccccc1)C2)c1ccc(F)cc1 (centres undefined)
0%&2% | Cc1ccc(-n2nc3n(c2=O)CCN([S+](=O)([O-])c2cccc(C(F)(F)F)c2)C3)cc1
-11% | CN1c2cc(C(=O)NCc3cccs3)ccc2C(=O)N2CCCC21 (centres undefined)
0% | OC1(CN2CCCCC2)CCN(Cc2ccc(C(F)(F)F)cc2F)C1 (centres undefined)
1% | COCCC(=O)N1CCC2(CCC2NC(=O)COC)CC1 (centres undefined)
7% | Cc1nc(CCNS(=O)(=O)Cc2cccc(Cl)c2)no1
-26% | COc1cccc(CC(=O)NC2CCN(c3cc(-c4cccs4)[nH]n3)C2)c1 (centres undefined)
3%[70.6 µM] | Cc1ccc(CN2C(=O)[C@@H]3C[C@@H](O)CN3C3(CN(Cc4ccc(C#N)cc4)C3)C2=O)o1
0% | CCn1cnnc1CC1CCN(S(=O)(=O)c2ccc3c(c2)CCC3)C1 (centres undefined)
-15% | COc1cccc(CCC(=O)NCCC2CCN(C(=O)Nc3ccc(C)c(F)c3)CC2)c1
2% | CN1CCOC[C@H]2CCN(C(=O)c3cccc4[nH]ccc34)C[C@H]21
-7%[70.6 µM] | Cc1onc(-c2cnn(C)c2NCCc2ccccc2)c1C(=O)NCc1ccccc1
0% | O=C(NCCc1noc(-c2ccccc2)n1)C1CC1
-8%[70.6 µM] | COc1ccc(-c2noc([C@@H]3Cc4nc[nH]c4CN3C(=O)CCC(=O)O)n2)cc1

hNpr1 antagonist: hit marks shown above.
hNpr1 antagonist | mol
14µM* | COc1cccc(CCC(=O)N2CCC(n3cc(-c4nc(-c5ccccc5)no4)nn3)C2)c1 (centres undefined)

More entries
hNpr1 antagonist | mol
2% | Cc1nc2ccc(C(=O)N3C[C@@H](CN4CCCCC4)[C@@H](CO)C3)cc2s1
-1% | CCN1c2cc(C(=O)NCc3ccccc3C)ccc2C(=O)N2CCCCC21 (centres undefined)
2% | O=C(c1cn[nH]c1)N1CCC(c2nc(CCOCC3CCOCC3)no2)C1 (centres undefined)
0% | COCCOc1ccc2c(n1)CCN(C(=O)Cc1ccccc1)C2
-7% | O=C(Cc1cccc(F)c1)NC1CCN(c2cc(C(F)(F)F)ncn2)CC1
-6% | COc1ccc(-c2ccc3nc(-c4cccc(Cl)c4)oc3c2)c(OC)c1OC
25% | COc1ccc(N2CC(C(=O)NCCc3ccc(Cl)cc3)NC2=O)cc1 (centres undefined)
3%[70.6 µM] | c1ccc(-c2cc(CC3(NCC4CC4)COC3)no2)nc1
-2% | COc1ccc(Cn2cc(C(C(=O)O)N(C)Cc3nnc(C)o3)cn2)cc1 (centres undefined)
-1% | CCN(C(=O)CCC(=O)N1CCC(C)(c2noc(-c3ccccn3)n2)CC1)c1ccccc1
-2%[70.6 µM] | CC(=O)Nc1cccc(-c2ccnc(-c3nnc(C)n3CCN3CCOCC3)c2)c1
13µM* | CN(Cc1ccccc1)C(=O)C1CCN(c2cc(C3CC(O)C3)ncn2)CC1 (centres undefined)
10% | COc1ccc(NC(=O)CN2C(=O)NC3(CCOCC3)C2=O)cc1
5% | Cc1cn2nc(C(=O)NCc3ccccc3)cc2c(N(C)Cc2ccccc2)n1
13% | Cc1noc(C)c1[S+](=O)([O-])N1CCC(N2Cc3cnc(C)n3C2=O)CC1
5% | CCCNC(=O)N1CCC(Cn2c(C)cnc2C2CC2)CC1
1%[70.6 µM] | Cc1noc(C)c1-c1cc2c(cc(C)n2C)c(-c2ccccc2)n1
0% | O=C(Cc1ccccc1Cl)N1CC(CO)C2(CCNCC2)C1 (centres undefined)
2% | CC(C)NC(=O)C1COC2(CCN(C(=O)c3ccc(F)cc3)CC2)N1C(=O)c1ccccc1 (centres undefined)
0% | Cc1ccc(C#N)c(N2CCCC(c3nnc(Cn4cccn4)n3C)C2)n1 (centres undefined)
-11% | Cc1ccsc1C(=O)NCC1Cn2cccc2CN1C (centres undefined)
2% | CC(CNC(=O)c1cc(CN2CCOCC2)on1)c1ccccc1 (centres undefined)
u | COc1c(F)cccc1C(=O)N1CCc2onc(-c3ccccc3F)c2C1
-16% | CN1c2cc(C(=O)Nc3cccc(C(F)(F)F)c3)ccc2C(=O)N2CCCCCC21 (centres undefined)
u | CCOc1ccccc1C(=O)N1CCC(Cc2nc(-c3ccc(F)cc3)no2)CC1
-2% | CCOc1ccccc1C1NC(=O)N(CC(=O)Nc2ccccc2)C2=C1C(=O)OC2 (centres undefined)
u | O=C([C@H](O)c1ccccc1)N1CCc2onc(-c3cccc4ccccc34)c2C1
0% | COC(=O)CCCNC(=O)[C@@H]1[C@@H](NC(=O)Nc2cccc(OC)c2)CCN1C(=O)C=C(C)C
0% | Cc1nn(C)c(C)c1CCC(=O)N1CCCC(N(C)C)CC1 (centres undefined)
-2% | Cc1cnc(CCNC(=O)Cn2c(=O)oc3ccccc32)n1C1CCC1
-1% | O=C(Nc1cccc(-n2cccn2)c1)C1CCCN1C(=O)C1CC1 (centres undefined)
-2% | CCc1cc(N2CCC3(CC2)CC(c2ccccc2)C(=O)N3)nc(N(C)C)n1 (centres undefined)
7% | Cc1ccc(S(=O)(=O)N2CC[C@H](c3n[nH]c(C)n3)[C@H](NC(=O)CN(C)C)C2)cc1
-3% | CCn1cc(CNc2ccc(-c3ccccc3OC)nn2)cn1
0% | COc1ccccc1CN1C(=O)C2(CCOCC2)CC1c1nnnn1C(C)(C)C (centres undefined)
0% | CCOc1c(CN(C)C(=O)Cn2cccc(OC)c2=O)cccc1OC
5%[70.6 µM] | c1cc(-c2nnc([C@H]3CCN(Cc4ncc[nH]4)C3)o2)ccn1
4% | COCc1ccc(C(=O)N2CC(=O)N(c3ccccc3C#N)CC2C)s1 (centres undefined)
1%[70.6 µM] | O=C(COc1ccccc1)N[C@H]1CO[C@H]2[C@@H]1OC[C@H]2OC(=O)Nc1ccccc1
-1% | O=C(NCc1ccccc1)c1ccc(-c2ccc(N3CCSCC3)nc2)cc1
0% | COc1ccc(N2CC(C(=O)N3CCN(c4ncccn4)CC3)NC2=O)cc1 (centres undefined)
-21% | COc1ccc2[nH]c3c(c2c1)CCNC31CCN(C(=O)c2cccs2)CC1
-12% | CCOc1ccc(CC(=O)N2CCC[C@H]2c2nc(-c3ccc(C)cc3)no2)cc1OCC
-2%[70.6 µM] | COC[C@H]1C[C@@H](NC(=O)C(C)C)[C@H](O)[C@@H]1O
1% | CN(CCO)CC1(O)CCCN(Cc2ccccc2F)C1=O (centres undefined)
-1% | COc1ccc(C2Cn3nnc(C(=O)NCc4cc(OC)ccc4OC)c3CO2)cc1 (centres undefined)
4% | CN(Cc1ccccc1C(F)(F)F)C(=O)c1ccc(Cl)nc1
-4% | O=C(CSc1ccccc1)N1CCc2onc(-c3ccc(F)c(F)c3)c2C1
-2%[70.6 µM] | Cc1cccc(OCC2(CNC(=O)C3CC3)C[C@@H](O)[C@@H](O)C2)n1 (some centres undefined)
2% | COc1ccccc1C(=O)N1CCN(c2cc(C(F)(F)F)nc(C)n2)CC1
4% | COc1ccc(N2C(=O)CSC23CCN(C(=O)NCc2ccccc2)CC3)cc1
1% | O=C(NCCC1CCN(C(=O)Nc2cccc(F)c2)CC1)c1ccccc1F

Some values from the results shown:
`Cc1ccc(-n2nc3n(c2=O)CCN([S+](=O)([O-])c2cccc(C(F)(F)F)c2)C3)cc1` @ hNpr1 antagonist = 0%&2%
`CN(CCO)CC1(O)CCCN(Cc2ccccc2F)C1=O` (centres undefined) @ hNpr1 antagonist = 1%
`Cc1onc(-c2cnn(C)c2NCCc2ccccc2)c1C(=O)NCc1ccccc1` @ hNpr1 antagonist = -7%[70.6 µM]
`O=C(N[C@@H]1C[C@H](Cn2cc(C3CC3)nn2)[C@@H](O)[C@H]1O)c1cccnc1` @ hNpr1 antagonist = 3%[70.6 µM]
`O=C(NCc1ccccc1)c1ccc(-c2ccc(N3CCSCC3)nc2)cc1` @ hNpr1 antagonist = -1%
`O=C(c1cn[nH]c1)N1CCC(c2nc(CCOCC3CCOCC3)no2)C1` (centres undefined) @ hNpr1 antagonist = 2%
`CCc1cc(N2CCC3(CC2)CC(c2ccccc2)C(=O)N3)nc(N(C)C)n1` (centres undefined) @ hNpr1 antagonist = -2%

An excerpt of these results, as labelled records:
molecule: O=C(COc1ccccc1)N[C@H]1CO[C@H]2[C@@H]1OC[C@H]2OC(=O)Nc1ccccc1
  hNpr1 antagonist = 1%[70.6 µM]

molecule: CCOc1ccc(CC(=O)N2CCC[C@H]2c2nc(-c3ccc(C)cc3)no2)cc1OCC
  hNpr1 antagonist = -12%

molecule: COc1ccc2[nH]c3c(c2c1)CCNC31CCN(C(=O)c2cccs2)CC1
  hNpr1 antagonist = -21%

molecule: COc1ccc(N2C(=O)CSC23CCN(C(=O)NCc2ccccc2)CC3)cc1
  hNpr1 antagonist = 4%

Source: PubChem BioAssay (National Center for Advancing Translational Sciences (NCATS))
